Bioassay records (PubChem)
Ba CapD inh = blocks the Bacillus anthracis CapD enzyme; purified CapD enzyme, fluorescence intensity read-out; stronger effect = lower value; some hits fall short of the stated cut; z-score (no concentration beside the values); 0.23% of 140,000 active;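 active = z-score under -4 in either of two replicates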;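 note: stock transfer was 100 nL into about 40 µL; score is relative to mean and spread of the plate; one replicate is shown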
AID504770 = E. coli YBA685 growth inhibition, screen for V. cholerae RctB inhibitors. E. coli YBA685 rctB-dependent plasmid, OD600 growth, 3 h; stronger effect = lower value. z-score (test concentration not listed). 0.27% of 130,000 active. AID 504770;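 active = z-score under -2 on both plates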;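 note: wells of about 30 µL received 100 nL stock; score is relative to mean and SD of the test wells; the first replicate is given; strong numbers were not always called active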
The depositor's hits bear a star; . = no result given. These rows are one share of the data; rates above refer to the full screens.

SMILES	Ba CapD inh	AID504770
CC(Oc1ccc(Cl)cc1Cl)c1ccnc2nc(N3CCOCC3)nn12 (centres undefined)	7.06	.
COc1cccc2oc(-c3ccccc3)c(Br)c12	-0.045	-0.3
O=C1/C(=C/c2c(NCCc3ccccc3)nc3ccccn3c2=O)SC(=S)N1Cc1ccco1	0.625	.
Cc1ccc(S(=O)(=O)C(C)C(=O)c2ccc3c(c2)OCCO3)cc1 (centres undefined)	-0.17	1.8
Cc1nc2c3ccccc3n(CC(=O)c3ccc(Br)cc3)c(=O)n2n1	0.285	-0.15
O=c1cc(-c2ccccc2)oc2cc(O)c(O)cc12	-0.56	.
Cc1cccc(Nc2nc(NCc3ccco3)nc(N3CCOCC3)n2)c1	-0.12	.
OCCN1CCN(c2nc(NCc3ccccc3)c3ccccc3n2)CC1	45.4	.
O=C(O)Cn1c(SCC(=O)c2ccc(Br)cc2)nc2ccsc2c1=O	-0.825	-0.95
CC(C)=C1C2C=CC1C1C(=O)N(c3ccc(C)c(Br)c3)C(=O)C21 (centres undefined)	-0.04	.
Cc1nc(=O)c(-c2ccccc2)c(C)n1CCCCCC(=O)O	.	-0.2
COc1ccc(C)cc1S(=O)(=O)N1CCCC1C(=O)OCc1ccc([N+](=O)[O-])cc1 (centres undefined)	-0.425	.

Molecules shown so far that have a COOH group, in the order listed:
SMILES	Ba CapD inh	AID504770
O=C(O)Cn1c(SCC(=O)c2ccc(Br)cc2)nc2ccsc2c1=O	-0.825	-0.95
Cc1nc(=O)c(-c2ccccc2)c(C)n1CCCCCC(=O)O	.	-0.2

(more compounds)
SMILES	Ba CapD inh	AID504770
O=C(NC1CCCC1)C1CCN(c2ccccc2)C1=O (centres undefined)	-0.34	0.8
COc1ccc2c(Cl)c(C(=O)Nc3ccc(C(N)=O)cc3)sc2c1	2.74	-0.4
O=C(CSC1=NCCS1)C12CC3CC(CC(C3)C1)C2	0.665	0.9
O=C1C(=O)N(c2ccccn2)C(c2ccccc2)/C1=C(\O)c1ccc(Br)cc1 (centres undefined)	-0.37	.
CCC(O)C(C)C1OC(=O)C(C)C(OC2CC(C)(OC)C(O)C(C)O2)C(C)C(OC2OC(C)CC(N(C)C)C2O)C2(C)CC(C)=C(O2)C1C (centres undefined)	-0.01	.
COc1ccc(CC(=O)NC2CCCCC2)cc1OC	0.555	0.15
CCOC(=O)c1oc2ccc(S(=O)(=O)Nc3ccc4[nH]c(=O)[nH]c4c3)cc2c1C	.	0.2
O=C(O)C(Cc1c[nH]c2ccccc12)N1C(=O)C2C3c4ccccc4C(c4ccccc43)C2C1=O (centres undefined)	-0.265	.
CC(C)(C)c1cc(C(C)(C)C)n(-c2ccc(C(=O)NNC(=O)Cc3csc4nc(-c5ccccc5)nn34)cc2)n1	0.285	.
O=C(O)Nc1cc(Cl)cc(Cl)c1	-0.44	3.3
Cc1nnc(-c2cc(-c3ccc(Cl)cc3)oc2C(F)(F)F)o1	-0.275	-0.25
Cc1nn(Cc2ccccc2Cl)c(C)c1C(=O)NC1=NCCS1	.	-0.45

Grouped by structure, those above containing a halogen
SMILES	Ba CapD inh	AID504770
CC(Oc1ccc(Cl)cc1Cl)c1ccnc2nc(N3CCOCC3)nn12 (centres undefined)	7.06	.
COc1cccc2oc(-c3ccccc3)c(Br)c12	-0.045	-0.3
Cc1nc2c3ccccc3n(CC(=O)c3ccc(Br)cc3)c(=O)n2n1	0.285	-0.15
O=C(O)Cn1c(SCC(=O)c2ccc(Br)cc2)nc2ccsc2c1=O	-0.825	-0.95
CC(C)=C1C2C=CC1C1C(=O)N(c3ccc(C)c(Br)c3)C(=O)C21 (centres undefined)	-0.04	.
COc1ccc2c(Cl)c(C(=O)Nc3ccc(C(N)=O)cc3)sc2c1	2.74	-0.4
O=C1C(=O)N(c2ccccn2)C(c2ccccc2)/C1=C(\O)c1ccc(Br)cc1 (centres undefined)	-0.37	.
O=C(O)Nc1cc(Cl)cc(Cl)c1	-0.44	3.3
Cc1nnc(-c2cc(-c3ccc(Cl)cc3)oc2C(F)(F)F)o1	-0.275	-0.25
Cc1nn(Cc2ccccc2Cl)c(C)c1C(=O)NC1=NCCS1	.	-0.45

(cont.)
SMILES	Ba CapD inh	AID504770
Cc1ccc(F)c(NC(=O)C(F)(F)C(F)F)c1	-0.605	-1.15
NS(=O)(=O)c1cccc2cc(C(=O)O)c(O)cc12	-3.44	0.15
CCOC(=O)N1CCN(C(=O)CN(c2cccc(C(F)(F)F)c2)S(=O)(=O)c2ccccc2)CC1	-0.38	.
Cc1ccc(-c2nc3nc(C)cc(=O)n3[nH]2)cc1	0.295	0.8
CCC1CCCCN1C(=O)COC(=O)CSc1cc(C)ccc1C (centres undefined)	-0.43	0
C=CCNc1nc(C(=O)OCC(=O)NCc2cccc(OC)c2)cs1	.	-0.7
CCOC(=O)c1ccc(N2CCOCC2)c(N=Cc2cc(Br)cc(Br)c2O)c1	0.47	.
COc1cc2c(cc1OC)C(C)N(C(C)=O)CC2 (centres undefined)	.	-0.15
CN1CCN(C(=O)c2ccc3c(=O)n(CCC4=CCCCC4)c(=O)[nH]c3c2)CC1	0.25	-0.85
Cn1c(-c2ccccc2)nc2cc(N)ccc21	.	0.35
C(=C\c1ccccc1)/C=N/[n+]1ccccc1	-0.86	-0.65
O=C(Nc1cccc(Cl)c1)C12CC3CC(CC(C3)C1)C2	0.595	0.95
Cc1ccc(O)c(C(=O)c2cnn3c(=S)[nH]nc3c2)c1	.	-0.15
Cc1noc(NS(=O)(=O)c2ccc(NC3OC(=O)c4ccccc43)cc2)c1C (centres undefined)	-0.895	-1
CCOc1ccc(-n2c(SCC(=O)NC(=O)CN3CCCC3=O)nc3ccccc32)cc1	.	-0.8
CCn1c(CNC(=O)C(OC)c2ccccc2)nnc1SC (centres undefined)	.	-0.75
CCc1cc2c(-c3ccccc3)cc(=O)oc2cc1OCC(N)=O	4.67	.
COc1cc(C2Nc3ccccc3C(=O)N2c2ccc(Cl)cc2)cc(OC)c1OC (centres undefined)	49.7	.
CCC(=O)c1[nH]c(C)c(C(=O)CC)c1C	-0.01	-0.85
O=S(=O)(NCC(c1ccccc1)N1CCNCC1)c1ccccc1 (centres undefined)	-1.06	0.4
N#Cc1ccc(COC(=O)CN2C(=O)COc3ccccc32)cc1	.	2.85
CCC(=O)NCc1ccc(Cl)cc1Cl	-0.435	0.55
OC(CN1CCNCC1)Cn1c2ccc(Br)cc2c2cc(Br)ccc21 (centres undefined)	-0.29	0
COc1ccccc1-c1coc2ccccc2c1=O	-0.6	-0.7
Cc1ccccc1NS(=O)(=O)c1ccccc1	-0.345	-0.5
CCCOc1ccc(C2C3CN(CC)CC=C3C(C#N)=C(N)C2(C#N)C#N)cc1OC (centres undefined)	.	-0.1
Cc1ccc2occ(CC(=O)N(C)Cc3ccccc3)c2c1	0.09	0.3
COc1ccccc1NC(=O)c1ccc(OCC(=O)O)cc1	0.625	0.1
Cc1ccc2cc(-c3noc(CC(C)C)n3)c(=O)[nH]c2c1	38.3	-0.25
CC(=O)OC(OC(C)=O)C12C=CC(O1)C1C(=O)N(c3cc(C(F)(F)F)ccc3Cl)C(=O)C12 (centres undefined)	-0.38	.
CC(=O)O/N=C(\C)c1c(OC(C)=O)ccc2c(C)cc(=O)oc12	20	-1.1
O=C(c1cc2c(s1)-c1ccccc1S(=O)(=O)C2)N1CCCCC1	-0.77	0
OC(Cn1cccn1)c1ccccc1 (centres undefined)	0.045	-0.5
CC1=C(C(=O)Nc2ccccn2)C(c2ccc(OCc3ccccc3)cc2)n2ncnc2N1 (centres undefined)	-0.035	.
COC(=O)CNS(=O)(=O)c1ccc(C)cc1	-0.24	1.4
CC(=O)c1ccc(OCc2ccccc2)cc1OCc1ccc(F)cc1	0.29	.
CN(C)C(=O)CSc1nnc2n1C(C)(C)Cc1ccccc1-2	.	-0.25
CN(C)c1ccc(-c2oncc2C#N)cc1	-1.26	0.2
COc1ccc(C(C)NC(=O)CCc2ccccc2)cc1 (centres undefined)	-1.24	1.1
NC(N)=N/N=C1\CCc2ccccc21	-1.25	-0.5
CC(C)(CN=C1NS(=O)(=O)c2ccccc21)CNC(=O)c1ccccc1Br	0.18	.
Cc1cccn2cc(-c3ccccc3)nc12	78.8	-0.85
CC1(C)CC(NCCCN2CCCCC2)=CC(=[N+]2CCCCC2)C1	-1.24	0.9
COc1cc(Br)c(/C=C2\C(=O)N(c3cccc(Cl)c3)N=C2C)cc1OC	0.07	.
CCc1nc2ccccc2c2c1C(=O)N(Cc1ccncc1)C2=O	-0.02	.
CCCCc1ccc(NC(=O)Nc2ccc(N3CCCCC3)cc2)cc1	1.17	0.6
CC12CCC3C(CCC4=CC(=O)CCC43CO)C1CCC2OC(=O)c1ccccc1 (centres undefined)	0.125	.
CC(C)(C)c1ccc(/C=N/NC(=O)c2ccc([N+](=O)[O-])o2)cc1	-0.1	.
Cc1c(CN2CCN(c3cccc(C(F)(F)F)c3)CC2)c(=O)n(-c2ccccc2)n1C	.	-0.55
COc1ccc(C2=NN(C(=O)c3ccc(Cl)cc3)C(c3cccc([N+](=O)[O-])c3)C2)cc1 (centres undefined)	-0.61	.
Cc1c(C(=O)Nc2ccc(Cl)cn2)sc2ncnc(N3CCCCC3C)c12 (centres undefined)	0.04	.
CCOC(=O)c1sc(SC(C)C)c2c1CC(C)(C)CC2=O	-0.565	.
O=C(Cc1ccccc1)c1ccc2c(c1)OCO2	1.81	-0.1
Cc1nn(-c2ccccc2)c(Cl)c1/C=N/NC(=O)c1cccnc1	.	-0.8
C=CCN1C(=O)C2(C(C(=O)OCC)=C(N)Oc3ccccc32)c2c1c1ccccc1oc2=O (centres undefined)	-0.39	-0.05
S=c1[nH]c2ccccc2[nH]c1=S	2.29	.
CCN(CC)C(=O)N1CCN(CCC#N)CC1	-0.015	0.1
NC(=O)c1ccsc1NC(=O)COC(=O)c1ccccc1	.	-0.1
CCC(C)NC(=O)c1cc(-c2cccs2)nc2c1c(C)nn2-c1ccccc1 (centres undefined)	.	1.5
Cc1ccc(S(=O)(=O)NCC2CCC(C(=O)NCc3cccnc3)CC2)cc1 (centres undefined)	0.13	-0.8
Further results follow.
SMILES	Ba CapD inh	AID504770
O=S(=O)(NC1c2cccc3cccc(c23)C1NCc1ccco1)c1ccccc1 (centres undefined)	-0.25	.
NC(=O)C1CCN(c2ncnc3nc[nH]c23)CC1	.	0.25
Nc1ccccc1C(=O)NNC(=O)c1ccco1	2.81	.
Cc1ccc([N+](=O)[O-])c2cc3c(nc12)-c1ccccc1C3=O	6.12	.
Nc1ncnc2c1ncn2[C@@H]1O[C@H](CO)[C@H](O)C1O (some centres undefined)	-0.25	.
O=C(NNC(=O)c1cccnc1)OCC(Cc1ccccc1)N(Cc1ccccc1)Cc1ccccc1 (centres undefined)	0.145	.
CCOc1ccccc1NC(=O)c1cc([N+](=O)[O-])ccc1N1CCCCC1	-0.255	.
CCCCn1nnnc1COC(=O)CCc1c[nH]c2ccccc12	.	-0.15
COc1ccc(C(=O)/C=C2/NCC(C)NC2=O)cc1 (centres undefined)	-0.96	1.3
CCOC(=O)C(=O)N1CCCc2ccccc21	-0.36	.
COc1ccc(-c2nc3ccccn3c2Nc2ccc3c(c2)OCO3)cc1	16.4	0
Clc1cccc(Nc2ncnc3ccc(Br)cc23)c1	3.17	.

Compound profiles, as listed above. Order of screens: Ba CapD inh	AID504770
Profile of `O=C(O)C(Cc1c[nH]c2ccccc12)N1C(=O)C2C3c4ccccc4C(c4ccccc43)C2C1=O` (centres undefined) → -0.265	.
Profile of `Nc1ccccc1C(=O)NNC(=O)c1ccco1` → 2.81	.
Profile of `CC(=O)O/N=C(\C)c1c(OC(C)=O)ccc2c(C)cc(=O)oc12` → 20	-1.1
Profile of `CCCCc1ccc(NC(=O)Nc2ccc(N3CCCCC3)cc2)cc1` → 1.17	0.6

(next part)
SMILES	Ba CapD inh	AID504770
O=C(CSc1nnc(-c2ccccc2)n1CCN1CCOCC1)NC1CCCCC1	0.03	-0.65
CC(C)C(=O)c1cn(Cc2ccccc2C#N)c2ccccc12	.	0.75
COc1ccc(-c2cn(-c3ccc(C)c(Cl)c3)c(=S)[nH]2)cc1OC	0.4	0.3
CC(=O)[C@H]1CC[C@H]2[C@@H]3C=CC4=CC(=O)CC[C@@]4(C)[C@@H]3CC[C@]12C	2.23	.
Cc1ccc(NC(=O)CSc2cccc[n+]2[O-])c(Br)c1	0.155	-0.1
CNc1ccccc1C(=O)NC(C)(C)C	84.3	.
COc1ccccc1Cn1c(=S)[nH]c2cc(C(=O)N3CCN(c4ccccc4OC)CC3)ccc2c1=O	-0.555	.
Cc1ccc(Cn2cc(CO)c3ccccc32)cc1	0.08	-0.9
CCSc1nnc2c(n1)OC(c1cc(Br)ccc1OC)Nc1ccccc1-2 (centres undefined)	-0.05	.
O=C(OCc1nccn1Cc1ccc(Cl)cc1)c1ccccc1Cl	-0.865	0.2
O=C(Nc1c(-c2ccccc2)c2cc(Br)ccc2[nH]c1=O)c1ccccc1	0.985	0.35
CC(C)(C)OC(=O)NC1CCN(C(=O)CSCC(=O)O)CC1	-0.035	1
COc1ccc2c(c1OC)C(=O)O[C@H]2[C@H]1c2c(cc3c(c2OC)OCO3)CCN1C	.	0.7
CCOC(=O)C1=C(N)Oc2cc(O)ccc2C1c1ccc(OC)cc1 (centres undefined)	-0.725	.
CCC(C)(C(=O)NC1CCCCC1)N(C)C(=O)Cc1cccs1 (centres undefined)	0.175	.
CC(C)(C)NC(=O)Nc1ccc(=O)n(Cc2c(Cl)cccc2Cl)c1	33.5	.
COc1ccc2c(COc3cccc(F)c3)cc(=O)oc2c1	.	0.15
CCOC(=O)c1c(NC(=O)c2ccccc2F)sc(C(=O)Nc2cccc(C(F)(F)F)c2)c1C	11.3	.
CCN1/C(=c2/s/c(=C3\SC(=S)N(C4CCCCC4)C3=O)n(CC)c2=O)C=Cc2ccccc21	-0.765	.
CN(Cc1ccc(C(C)(C)C)cc1)C(=O)c1ccc(N(C)C)cc1	.	-0.45
COc1ccc(C2CC(=O)NC(SCC(=O)Nc3ccc(Cl)cc3)=C2C#N)cc1 (centres undefined)	-0.13	.
CCOc1ccc2oc(C(=O)NN3C(C)CCCC3C)c(C)c2c1 (centres undefined)	.	-0.6
Cc1cc(NCc2ccccn2)n2c(nc3ccccc32)c1C#N	5.43	-0.65
